# Compound activity: PubChem, several laboratories
# RanGTP-Impb inh: disruptors of Ran-importin-beta complex formation – biochemical, FRET, CFP-Ran, YFP-importin-beta, homogeneous, primary screen; cell-free CFP-Ran/YFP-importin-beta FRET ratio; inhibition, % (no concentration beside the values); 300,000 compounds, 1.1% hits;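 active means most replicates above 15%; inconclusive means exactly half above 15%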;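 further: 0% = DMSO wells and 100% = Ran loaded with GDP instead of GTP; wells of about 40 µL received 100 nL stock; the first replicate is given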
# AF4-AF9 inh: MLL-AF4/AF9 protein interaction inhibition; P42568; AlphaScreen, biotin-AF4 peptide binding to FLAG-AF9; inhibition, % at 10 µM; 350,000 compounds, 0.47% hits; AID 651704;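 active means every replicate reaching a set inhibition limit, whatever the replicate mean, cut at about 25% in these data; inconclusive means mean inhibition reaches that limit but some replicates miss it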;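 further: 0% = plate neutral control median and 100% = total signal loss; the record names both 10 and 1 µM as test concentration; the first replicate is given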
# Target sequence (P42568 whole entry, looked up): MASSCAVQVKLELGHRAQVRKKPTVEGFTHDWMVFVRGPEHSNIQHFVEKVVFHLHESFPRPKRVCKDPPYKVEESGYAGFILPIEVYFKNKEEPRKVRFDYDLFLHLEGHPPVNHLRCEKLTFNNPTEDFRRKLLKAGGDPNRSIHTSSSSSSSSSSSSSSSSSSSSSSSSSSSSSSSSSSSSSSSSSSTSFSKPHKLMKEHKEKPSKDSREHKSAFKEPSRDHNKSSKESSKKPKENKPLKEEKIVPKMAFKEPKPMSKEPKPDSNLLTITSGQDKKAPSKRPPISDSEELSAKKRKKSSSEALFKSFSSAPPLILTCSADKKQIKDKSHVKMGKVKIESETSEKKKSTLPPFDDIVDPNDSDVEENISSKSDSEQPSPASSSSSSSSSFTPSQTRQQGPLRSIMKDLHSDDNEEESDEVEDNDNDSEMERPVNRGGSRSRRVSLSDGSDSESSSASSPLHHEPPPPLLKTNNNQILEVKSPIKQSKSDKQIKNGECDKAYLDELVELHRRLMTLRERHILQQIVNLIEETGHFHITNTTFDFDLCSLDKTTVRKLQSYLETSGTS
# FGF22 binding: shifts melting point of recombinant human FGF22; Q9HCT0; recombinant FGF22 thermal shift, SYPRO orange fluorescence; percent of sucrose octasulfate shift, DMSO zero; calls only at 9.99 µM; 340,000 compounds, 1.5% hits; AID 651658;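 active means melting point raised past a set limit in the mean and every replicate; inconclusive means no clear call; three in four hits are not shown here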
# Target sequence (Q9HCT0 whole entry, looked up): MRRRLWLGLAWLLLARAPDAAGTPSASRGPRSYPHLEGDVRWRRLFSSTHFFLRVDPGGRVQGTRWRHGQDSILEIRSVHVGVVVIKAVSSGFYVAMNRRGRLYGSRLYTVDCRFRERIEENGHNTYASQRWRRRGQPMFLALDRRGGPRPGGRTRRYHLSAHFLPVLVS
# HNF4A DNA FP: change in binding of human HNF4 alpha to DNA | P41235 | HNF4a-FITC DNA binding, fluorescence polarization, 1 h | activity change, % at 10 µM | 360,000 compounds, 0.3% hits; in the data active means activity change above about 30%, passing the limit was not always enough;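 further: controls were the assay level and a saturating level of protein; the project sought stronger binding though the title names inhibitors; some compounds called inactive have numbers as strong as hits; positive values seem to mean higher polarization but the record does not say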
# Vif A3G: HIV-1 Vif–A3G interaction blockers – biochemical, TR-FRET, GST-Vif 1-94, biotin-A3G peptide, dose response retest, primary screen (AID 1117319). TR-FRET GST-Vif / biotin-A3G peptide binding; higher % means a stronger effect; test concentration not given here; strong numbers were not always called active. inhibition, %, or IC50 in µM where a hit was titrated. 260,000 compounds, 0.57% hits;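 active means above the screen mean plus three standard deviations and confirmed in dose response; inconclusive means results disagree or hit not tested in dose response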;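 further: Vif residues 1-94 fused to GST binding biotinylated APOBEC3G peptide 110-148; 0% = full assay without inhibitor and 100% = GST in place of GST-Vif; retest series ran down from 100 µM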
# Ecoli growth: inhibitors of Escherichia coli growth; OD600, 23 h; hits give low values; OD600 absorbance (concentration not given with the values); 330,000 compounds, 0.21% hits; AID 1053175;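 active means OD600 absorbance below the run mean of sample wells minus 3.6 SD, in any replicate, cut at about 0.56 in these data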;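 further: stock transfer was 300 nL into about 60 µL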
# UCH37 DUB inh: blocks the human deubiquitinase UCH37; AID 588478; inhibition, % (test concentration not listed); purified proteasome/UCH37, Ub-AMC cleavage fluorescence; 330,000 compounds, 0.33% hits;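 active means mean of two replicates above 20%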;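 further: 0% = compound-free wells with enzyme and 100% = wells lacking proteasome; stock transfer was 100 nL into about 20 µL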
# Target sequence (Q9Y5K5 whole entry, looked up): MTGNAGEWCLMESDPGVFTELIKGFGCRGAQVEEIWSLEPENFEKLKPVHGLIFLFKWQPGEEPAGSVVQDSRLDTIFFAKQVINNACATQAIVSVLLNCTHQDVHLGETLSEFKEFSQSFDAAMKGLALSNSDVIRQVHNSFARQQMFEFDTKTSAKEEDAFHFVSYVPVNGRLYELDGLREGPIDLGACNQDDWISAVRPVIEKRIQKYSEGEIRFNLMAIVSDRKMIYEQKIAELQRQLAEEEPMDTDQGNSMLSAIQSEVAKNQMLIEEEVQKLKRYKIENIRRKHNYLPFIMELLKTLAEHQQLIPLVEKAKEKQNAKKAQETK
#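 Signal – fluorescence, ex 355 nm, em 460 nm · System – Proteasome-bound UCH37 · Input – 0.15 nM proteasome as dispensed · Timing – 30 min preincubation with enzyme, 25 min cleavage at room temperature · Read-out basis – percent inhibition of cleavage signal versus uninhibited and no-proteasome wells · Medium – Tris-HCl pH 7.4 with ATP-MgCl2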
# * hit, by the source's call; i = inactive; ? = inconclusive; . = no result given. This is a subset; count on the stated rates, not on these rows.
SMILES,RanGTP-Impb inh,AF4-AF9 inh,FGF22 binding,HNF4A DNA FP,Vif A3G,Ecoli growth,UCH37 DUB inh
Cc1ccc(-c2c(C(=O)O)c(C(=O)O)c3n2CCC3)cc1,.,-2.1,i,-1.0,8%,0.68,-0.6
O=C(CN(c1cccc([N+](=O)[O-])c1)S(=O)(=O)c1ccccc1)N1CCCCC1,-2.3,2.1,i,1.3,.,0.67,-0.6
CC(Sc1nnc(-c2ccncc2)n1-c1ccc(F)cc1)C(=O)NC1CC1 (stereo not drawn),.,-2.2,i,-1.7,-11%,0.7,2.7
Cn1c(Cc2cccs2)nnc1SCC(=O)Nc1ccc(C(N)=O)cc1,.,-0.5,i,0.6,1%,0.68,-0.2
O=C(CSc1nnc2ccccn12)Nc1ccc2c(c1)OCO2,1.1,-0.1,i,3.8,-12%,0.67,-1.1
COc1ccc(C2C(C(C)=O)=C(C)Nc3ncnn32)c(OC)c1OC (stereo not drawn),-2.8,2.6,i,13,1%,0.63,2.2
NC(=O)c1nsc(C(=O)N(c2cccc(F)c2)C(C(=O)NC2CCCC2)c2ccco2)c1N (stereo not drawn),2.9,-0.3,i,4.4,.,0.7,-35
Cc1ccc(SC(C)c2nc(-c3cccnc3)no2)cc1 (stereo not drawn),?,.,.,1.6,-2%,0.69,1.4
O=C(c1c(Cl)nc2sccn12)N1CCN(c2cccc(Cl)c2)CC1,4.2,.,.,-1.6,1%,.,-0.4
COc1ccccc1C1CCN(C(=O)c2ccccc2)CC1,-0.6,0.4,i,-4.0,6%,0.68,2.1
CC12CCC(=O)N1C(C(=O)Nc1cc(Cl)ccc1N1CCCC1)CS2 (stereo not drawn),.,4.6,i,-0.9,-4%,0.69,3.0
CCCCNC(=O)C1c2ccccc2OCC(=O)N1Cc1ccccn1 (stereo not drawn),.,1.5,i,-1.0,.,.,.
Cc1ccc(CNC(C)c2ccccc2)cc1 (stereo not drawn),?,.,.,2.5,-12%,0.69,3.2
COc1ccc(OC)c(NC(=O)Nc2c(O)ccc3ccccc23)c1,8.1,5.3,i,2.4,.,0.61,0.2
COc1ccccc1NC(=O)c1ccc(CSc2ncccn2)cc1,0.8,.,.,.,0%,0.64,1.7
CN1CCCN(c2cc(-c3ccc4ccccc4c3)nc3ccnn23)CC1,.,9.2,i,8.1,.,.,.
COc1ccc(NC(=O)COC(=O)Cc2ccccc2[N+](=O)[O-])cc1OC,?,2.1,.,1.3,-8%,0.66,1.8
O=S(=O)(/C=C/c1cccc(Br)c1)N1CCOCC1,0.7,1.4,i,-2.9,-10%,0.7,4.0
COc1ccc(CCNc2nncc(=O)[nH]2)cc1OC,5.2,5.1,.,-2.7,6%,0.68,-0.2
Brc1ccc2ncnc(NCc3ccccc3)c2c1,-9.7,.,.,-0.9,-9%,0.73,4.6
CCC(CC)NC(=O)COC(=O)CCC(=O)c1ccc(Cl)cc1,0.2,-1.9,i,3.4,.,0.67,-0.2
CCCC(=O)NC(C)c1nc2ccccc2[nH]1 (stereo not drawn),-2.4,0.5,i,-1.1,-1%,0.73,2.8
O=C(CN1C(=O)NC2(CCCCCCC2)C1=O)NCc1ccc(F)cc1,.,-1.5,i,2.7,.,0.69,0.5
O=C(CSc1nnnn1-c1ccccc1)NCc1ccco1,2.9,.,.,0.2,13%,0.69,0.7
Cc1oc(-c2ccccc2F)nc1CS(=O)(=O)CC(=O)NC1CCCC1,-0.6,-8.6,i,2.9,-9%,0.75,1.1
# Continuation:
SMILES,RanGTP-Impb inh,AF4-AF9 inh,FGF22 binding,HNF4A DNA FP,Vif A3G,Ecoli growth,UCH37 DUB inh
CC(C)(CO)CNC(=O)c1ccc(OC2CCN(C(=O)C3CC3)CC2)cc1,-1.7,-1.1,i,0.5,-8%,0.7,2.4
COC(=O)C(NC(=O)C(NC(=O)c1ccccc1)C(C)C)C(C)C (stereo not drawn),-0.7,.,.,1.6,71%,0.66,2.9
Cc1nc2sccn2c1-c1nc(-c2cc3ccccc3o2)cs1,-0.1,.,.,4.1,-8%,.,.
Cc1ccc(C)c(S(=O)(=O)N2CCCC2CNC(=O)C(=O)NCC2CCCO2)c1 (stereo not drawn),-0.3,0.6,i,34*,-2%,0.66,1.2
Nc1nc(-c2ccc(Br)s2)c(Br)s1,5.3,.,.,-0.9,-10%,0.76,1.8
N#CCc1nc(CSc2nc3ccccc3o2)cs1,-5.4,3.3,i,14,3%,0.69,3.8
Cc1ccc(Nc2nc(N)nc(CN3CCN(C)CC3)n2)cc1,-1.6,.,.,-6.8,4%,0.67,0.1
O=C(O)c1cccc(NC(=O)c2ccccc2NC(=O)c2cccs2)c1,.,-4.6,i,2.6,.,.,.
COc1ccc(NC(=O)Nc2cc(C)ccc2OC(F)F)c(OC)c1,5.0,.,.,7.5,2%,0.66,0.4
N#Cc1c2c(c(NCc3cccnc3)n3c1nc1ccccc13)CCC2,?,.,.,-0.1,11%,0.71,-41
CCCCn1c(SCC(=O)N2CCCC2)nnc1-c1ccccc1,7.5,.,.,-0.1,10%,0.73,0.9
CC(C)CCOc1ccc(NC(=O)C2OC3OC(C)(C)OC3C3OC(C)(C)OC23)cc1 (stereo not drawn),-0.2,.,.,-1.2,20%,0.7,3.0
CCn1c(C(=O)NCCCc2ccccc2)cc2sccc21,-0.2,.,.,0.6,.,0.71,5.4
COc1ccccc1CCC(=O)OCC(=O)Nc1ccc(S(N)(=O)=O)cc1,0.0,0.8,i,4.5,.,0.69,0.6
NC(Cc1ccccc1)c1csc(Nc2ccc(C(=O)c3ccccc3)cc2)n1 (stereo not drawn),.,13,i,1.6,.,.,.
Cc1ccc(S(=O)(=O)N(C)C)cc1NC(=O)COC(=O)C1CCCC1,1.7,5.5,i,0.8,4%,0.72,2.6
CCC(C)NC(=O)c1cc(CC(C)C)on1 (stereo not drawn),0.1,12,i,0.9,0%,0.74,3.1
O=C(Nc1ccc2c(c1)OCO2)Nc1ccc(Br)cn1,3.4,.,.,-0.6,6%,0.72,0.2
CC(C)(C)n1ncc2c(=O)n(CC(=O)N3CCN(c4ccccc4)CC3)cnc21,.,.,.,.,0%,0.74,-0.3
CC(=O)Nc1ccc(NC(=O)c2cc(-c3ccc(C)c(C)c3O)n[nH]2)cc1,-3.1,1.3,i,4.8,-4%,0.65,0.4
O=C(NCCS(=O)(=O)N1CCN(c2ccccc2)CC1)C1CC1,1.8,-20,i,1.2,-9%,0.71,-2.4
COc1ccc(C2C(C(=O)Nc3ccc(OC)c(OC)c3)c3ccccc3C(=O)N2C)cc1 (stereo not drawn),-1.7,0.5,i,-0.4,5%,0.7,11
Cc1ccc(NNS(=O)(=O)c2ccc(C)cc2)cc1,-0.3,.,.,1.6,13%,0.71,2.5
Cc1ccc(OCCCCN2CCCCC2)c(C)c1,-1.2,-0.8,i,1.5,.,0.63,0.9
C/C(=N\NC(=O)C1CC1)c1ccc(OC(F)F)cc1OC(F)F,4.6,-1.6,i,3.2,5%,.,.

# One compound at a time, as listed above. Order of screens: RanGTP-Impb inh	AF4-AF9 inh	FGF22 binding	HNF4A DNA FP	Vif A3G	Ecoli growth	UCH37 DUB inh
# CCn1c(C(=O)NCCCc2ccccc2)cc2sccc21 is entered as -0.2	.	.	0.6	.	0.71	5.4
# Cc1ccc(C)c(S(=O)(=O)N2CCCC2CNC(=O)C(=O)NCC2CCCO2)c1 (stereo not drawn) is entered as -0.3	0.6	i	34*	-2%	0.66	1.2
# NC(Cc1ccccc1)c1csc(Nc2ccc(C(=O)c3ccccc3)cc2)n1 (stereo not drawn) is entered as .	13	i	1.6	.	.	.
# CC(=O)Nc1ccc(NC(=O)c2cc(-c3ccc(C)c(C)c3O)n[nH]2)cc1 is entered as -3.1	1.3	i	4.8	-4%	0.65	0.4
# Cc1ccc(Nc2nc(N)nc(CN3CCN(C)CC3)n2)cc1 is entered as -1.6	.	.	-6.8	4%	0.67	0.1

# The results go on.
SMILES,RanGTP-Impb inh,AF4-AF9 inh,FGF22 binding,HNF4A DNA FP,Vif A3G,Ecoli growth,UCH37 DUB inh
C/C(N)=C(/C#N)C(=O)COC(=O)CCSc1ccccc1Cl,-0.6,.,.,1.9,3%,0.68,1.4
Cc1ccccc1OCCCCN1CCCCC1,-1.9,2.9,i,-0.6,1%,.,.
O=C(c1ccccc1)N1CCN(Cc2ccccc2C(F)(F)F)CC1,-0.7,0.1,i,3.9,25%,0.66,1.5
CC(=O)c1cccc(NC(=O)c2ccccc2N(Cc2ccccc2)S(C)(=O)=O)c1,4.7,-11,i,-0.8,.,0.69,4.4
C=CCN(C(=O)CNC(=O)c1ccco1)C(C(=O)NC1CCCCC1)c1ccccc1 (stereo not drawn),0.5,.,.,-0.4,-6%,0.7,3.5
Cc1ccc(NC(=O)c2cccs2)cc1S(=O)(=O)N(C)C,-2.3,-5.3,i,7.2,7%,0.72,3.0
COc1cccc(SCc2noc(C(=O)NC(C)C)c2C(=O)O)c1,1.8,-59,i,6.5,4%,0.71,0.8
NS(=O)(=O)c1ccc(NC(=S)NC(=O)C2CCCC2)cc1,0.9,-0.4,i,-0.8,.,0.67,4.7
Cc1cc(C)c(NC(=O)COC(=O)c2nc3nccc(C)n3n2)c(Cl)c1,.,0.1,i,2.2,5%,0.66,2.2
CC(C1CCN(Cc2cn(C)nc2-c2cccc(Cl)c2)CC1)N1CCOCC1 (stereo not drawn),-1.2,1.2,i,8.1,0%,0.66,-0.1
Nc1nc(CSc2ccc(Cl)cc2)nc(N2CCCCC2)n1,.,3.7,i,-0.5,8%,0.66,3.0
CCCNC(=O)C1(C)CCCN(C(=O)c2ccc3snnc3c2)C1 (stereo not drawn),.,-9.3,i,1.6,.,.,.
O=C(NNC(=O)c1cc(S(=O)(=O)N2CCOCC2)ccc1Cl)c1ccc(F)cc1,.,-3.9,i,1.4,0%,.,.
CC(C)(O)/C=C1/Oc2ccccc2C1N1CCCCC1 (stereo not drawn),-0.5,.,.,-0.6,-5%,0.76,-2.5
COc1ccccc1NC(=O)Nc1ccccc1Br,1.3,-2.1,i,-1.3,3%,0.71,0.9
O=C1C(c2ccccc2)C(c2ccccc2)NC(c2ccccc2)C1c1ccccc1 (stereo not drawn),1.2,.,.,-4.1,-8%,0.73,0.2
COc1ccc(C(C)(O)c2nc(-c3ccc(OC)c(OC)c3)cs2)cc1 (stereo not drawn),.,-1.7,i,2.6,.,.,.
O=C(NCCCCc1ccccc1)c1ccccc1,-1.5,0.8,i,1.5,5%,0.65,2.5
NS(=O)(=O)c1ccc(Cc2ncc(C(F)(F)F)cc2Cl)s1,0.8,.,.,-3.0,-1%,0.68,1.9
COc1ccc(-c2nn(-c3ccccc3)cc2/C=N/Nc2ccc(Cl)c(C(=O)O)c2)cc1OC,-2.6,-4.9,i,-1.0,8%,.,.
O=C1c2cccc3cc([N+](=O)[O-])cc(c23)C(=O)N1c1ccccc1O,-5.7,6.3,.,-3.7,.,0.68,4.7
c1ccc2c(c1)sc1nnnn12,?,.,.,1.8,?,0.7,0.5
CC(C)C(=O)NC(NC(=O)C(C)C)c1ccc([N+](=O)[O-])cc1,2.6,2.9,i,3.6,-7%,0.67,0.7
Cc1ccc(NC(=O)C2CCCCC2)c(O)c1,-0.2,.,.,.,9%,0.67,1.7
O=C1CCCN1c1ccc([N+](=O)[O-])cc1,.,2.1,i,0.6,5%,.,.
OCCC1CN(Cc2cccnc2)CCN1CCc1ccccc1 (stereo not drawn),1.0,2.9,i,-0.9,20%,0.71,-1.9
O=C(NNc1cc(N2CCOCC2)nc(N2CCOCC2)n1)c1ccc([N+](=O)[O-])cc1,63*,2.4,i,5.8,.,0.7,26*
Cc1ccccc1NC(=S)N(CCCN1CCC(C)CC1)Cc1ccco1,2.1,.,.,-0.3,.,0.69,0.7
